Source: PubChem BioAssay (National Center for Advancing Translational Sciences (NCATS))
NS1 function inh: inhibitors of influenza NS1 protein function. AID 2326. 0.4% of 270,000 active. S. cerevisiae slowed by influenza A NS1, growth recovery by OD600. Potency, µM (top dose mostly 46.1 µM), for inactives: at the top dose activity, positive = more growth; also: actives are rising curves; nearly all actives have a fitted effect of over 50% in size
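Growth recovery, yeast-based: influenza A NS1 expressed in S. cerevisiae causes slow growth, and suppressors are detected by OD600. The parent strain without NS1 is used as positive control.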
MARV entry inh: inhibitors of Marburg virus binding or cell entry; Marburg virus pseudotyped entry inhibition, cell reporter; control for the full effect not named in the record; about a third of the inactives were read at about 46 µM; Potency, µM (top dose mostly 37.8 µM), for inactives: at the highest dose activity change, negative = inhibition, hits mostly inhibitors; 1.8% of 300,000 active; AID 540276; active = well fitted inhibition curve with a large enough effect; inconclusive = small, poorly fitted or top-dose-only effect, or effect the other way; inactive = flat fitted curve, though single readings scatter; tested in HEK293 cells; about a fifth of its hits are not listed in these tables; also: % is scaled to controls: 0 for no effect and ±100 for the full control effect; luciferase read-out
SARS PLpro yeast: blocks SARS-CoV papain-like protease in a yeast assay; S. cerevisiae expressing SARS-CoV PLpro, growth rescue; control for the full effect not named in the record; Potency, µM (doses to about 32.9 µM), for the others: at the top dose activity, positive = growth rescue; 0.19% of 330,000 active; AID 485353; also: 0% is about no effect; nearly all actives have a fitted effect of over 55% in size; growth read by luminescence after 48 h
Cruzain inh Det: cruzain (T. cruzi) inhibition with detergent; Potency, µM, for the others: max response, negative = inhibition, usual class: inhibitors; purified cruzain, Z-FR-AMC fluorescence, 0.01% Triton; 0.43% of 200,000 active; P25779; active = well fitted curve in the direction sought with a large enough effect; inconclusive = small, poorly fitted or top-dose-only effect, or another doubt; inactive = no such curve, though single readings can be large; an effect the other way counts as inactive or inconclusive;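 also: plate controls were neutral wells for no effect and buffer without enzyme for full effect; nearly all actives have a fitted effect of over 40% in size; top concentration of the series not given in the record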
Target sequence (P25779 123-467 limits assumed): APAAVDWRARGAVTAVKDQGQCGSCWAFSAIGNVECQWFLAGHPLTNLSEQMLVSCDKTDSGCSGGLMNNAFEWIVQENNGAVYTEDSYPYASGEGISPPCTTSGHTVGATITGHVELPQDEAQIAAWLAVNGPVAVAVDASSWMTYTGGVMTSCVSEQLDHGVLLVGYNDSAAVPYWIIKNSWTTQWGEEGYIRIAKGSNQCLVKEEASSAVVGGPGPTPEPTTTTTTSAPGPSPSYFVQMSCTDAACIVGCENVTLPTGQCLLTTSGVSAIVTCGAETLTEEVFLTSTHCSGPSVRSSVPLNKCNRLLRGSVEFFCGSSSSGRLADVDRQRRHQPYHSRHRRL
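Detergent-containing arm of a paired screen for aggregation-based inhibition: 0.01% Triton X-100 present. Cruzain at 1.5 nM cleaved 2 uM Z-FR-AMC at pH 5.5 with 5 mM DTT; AMC fluorescence gain over 60 s measured activity.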
Lassa entry inh: blocks Lassa virus binding to or entry into cells. Lassa virus pseudotype entry inhibition, cell reporter; control for the full effect not named in the record. Potency, µM (highest dose often 37.9 µM), without a hit: top-dose activity change, negative = inhibition, usual class: inhibitors. 1.2% of 300,000 active. AID 540256; active means well fitted inhibition curve with a large enough effect; inconclusive means small, poorly fitted or top-dose-only effect, or effect the other way; inactive means flat fitted curve, though single readings scatter; tested in HEK293 cells; also: % is scaled to controls: 0 for no effect and ±100 for the full control effect; nearly all actives have a fitted effect of over 50% in size; luciferase read-out
Cruzain inh noDet: blocks cruzain activity in detergent-free assay; 2.3% of 200,000 active; purified cruzain, Z-FR-AMC fluorescence, no detergent; Potency, µM, inactives show max response, negative = inhibition, hits mostly inhibitors; P25779; active = well fitted curve in the direction sought with a large enough effect; inconclusive = small, poorly fitted or top-dose-only effect, or another doubt; inactive = no such curve, though single readings can be large; an effect the other way counts as inactive or inconclusive;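 also: plate controls were enzyme without inhibitor for no effect and buffer without enzyme for full effect; nearly all actives have a fitted effect of over 40% in size; top concentration of the series not given in the record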
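Purified cruzain at 1.5 nM, pre-incubated 15 min with compound at room temperature in 100 mM sodium acetate pH 5.5, 5 mM DTT, 0.00005% Triton X-100. Reaction started with 2 uM Z-FR-AMC; AMC fluorescence increase over 60 s gives rate.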
RE007 growth inh: less growth of the S. pombe RE007 Vpr strain; AID 651644; S. pombe RE007 Vpr strain, BacTiter-Glo ATP luminescence, 24 h; control for the full effect not named in the record; Potency, µM (highest dose often 92.2 µM), without a hit: at the top dose activity change, negative = less growth; 0.21% of 360,000 active; active = well fitted falling curve with a large enough effect; inconclusive = small, poorly fitted or top-dose-only effect; inactive = no such curve, though single readings can be large or run the other way;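 also: % is scaled to controls: 0 for no effect and ±100 for the full control effect; nearly all actives have a fitted effect of over 50% in size; the assay follows cell death caused by Vpr and the record does not say whether a fall means rescue or toxicity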
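Fission yeast RE007 carrying one integrated HIV-1 vpr copy, seeded at OD 0.01 in PMG+AL medium with 23 nL pinned compound. Grown 24 h at 30 degrees; viability read by BacTiter-Glo luminescence after 5 min.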
StopGo reporter: FMDV 2A StopGo reporter, luciferase signal | AID 1159524 | Potency, µM (series often up to 57.9 µM), for the others: at the top dose signal change, negative = less light | 1.2% of 410,000 active | human cells with a luciferase reporter of 2A StopGo recoding; control for the full effect not named in the record; active = well fitted falling curve with a large enough effect; inconclusive = small, poorly fitted or top-dose-only effect; inactive = no such curve, though single readings can be large or run the other way; tested in HEK293T cells; also: % is scaled to controls: 0 for no effect and ±100 for the full control effect; nearly all actives have a fitted effect of over 45% in size; luciferase light after 4 h
* marks the source's active call; other numbers are inactive results; ? = inconclusive; / = no result given; [ ] = remark or other dose. Unless noted, calls follow the shape of the dose curve; as a rule, active means well fitted rising curve with a large enough effect; inconclusive means small, poorly fitted or top-dose-only effect; inactive means no such curve, though single readings can be large or run the other way. Potency is read from the fitted curve at half-maximal effect. Compounds as they come. Share with any hit: about 4.7%.

SMILES	NS1 function inh	MARV entry inh	SARS PLpro yeast	Cruzain inh Det	Lassa entry inh	Cruzain inh noDet	RE007 growth inh	StopGo reporter
Cc1nc([N+](=O)[O-])c(C(=O)OCc2ccc(C#N)cc2)n1C	/	-2%[46.1 µM]	2%	/	4%	/	-17%	-4%
CCOC(=O)N1CCN(C(=O)C2CCN(S(C)(=O)=O)CC2)CC1	24%	7%	1%	2.0%	27%	5%	9%	/
CC(OC(=O)c1cn(-c2ccccc2)nc1-c1cccnc1)C(N)=O (centres undefined)	/	-10%[46.1 µM]	3%	/	5%	/	20%	-3%
CC(C)OCCCNC(=S)Nc1ccc2nc3n(c(=O)c2c1)CCCCC3	/	-12%[46.1 µM]	-3%	/	-8%[46.1 µM]	/	3%	-18%
C=CCc1cccc(C=Nc2cc(Br)ccc2O)c1O	-46%	-22%	-43%	-6.5%	?	?	-26%	-7%
CN(C)C(CNc1ccc(S(C)(=O)=O)cc1[N+](=O)[O-])Cc1ccccc1 (centres undefined)	3%	?	0%	/	16%	/	4%	-20%
COC(=O)c1c(SCc2ccc(C#N)cc2)nc(=O)[nH]c1C	-6%	?	-2%	/	8%[46.1 µM]	/	16%	-17%
O=S(=O)(CCN1C=CC(C(F)(F)F)=NCC1)c1ccc(Cl)cc1Cl	4%	?	-1%	/	-1%	/	-15%	-19%
COc1cc(NC(=O)CN2C(=O)COc3ccc(S(=O)(=O)N4CCOCC4)cc32)cc(OC)c1	-5%	-27%[46.1 µM]	2%	/	-4%[46.1 µM]	/	-4%	8%
CCN(CC)C(=O)Cn1cc(S(=O)(=O)Cc2cccc([N+](=O)[O-])c2)c2ccccc21	14%	-2%[46.1 µM]	-9%	/	3%[46.1 µM]	/	0%	-4%
O=C(CCSc1ccccc1)Nc1nccs1	-7%	27%	7%	1.7%	30%	-9%	-12%	46%[activator]
CCn1c2ccccc2c2cc(CN3CCN(Cc4ccc(Br)cc4)CC3)ccc21	/	/	/	0.3%	?	?	/	-28%
CCOC(=O)c1c(-c2ccccc2)csc1NC(=O)c1cc(-c2cccc(OC)c2)on1	/	-6%[46.1 µM]	/	-3.4%	?	-7%	/	0%
Cc1ccc(S(=O)(=O)Nc2nc(C)cc(-n3nc(C)cc3C)n2)cc1	-2%	-2%	-10%	-0.3%	14%	1%	-12%	-10%
O=C(Cc1cccs1)N1CCC(c2nc3c(nnn3Cc3ccccc3)c(=O)[nH]2)CC1	-7%	?	6%	2.1%	-37%	?	1%	-25%
COc1ccc(CCNC(=O)CSc2nc3ccsc3c(=O)n2CC2CCC(C(=O)O)CC2)cc1OC (centres undefined)	12%	-26%[46.1 µM]	?	/	24%[46.1 µM]	/	-6%	37%[activator]
Cc1ccc(C2=NN(CC(=O)NCCc3ccccc3)C(=O)CC2)cc1	/	/	/	0.4%	-5%[46.1 µM]	10%	/	-13%
CCOc1ccc(NC(=O)c2nn(C)c3c2COc2ccccc2-3)cc1	/	17%[46.1 µM]	/	-3.8%	-24%[46.1 µM]	20%	/	13%
Nc1nnc(-c2ccccc2F)s1	2%	?	-1%	/	?	/	-4%	29%
Cc1ccc(CNC(=O)CN2CCN(Cc3ccc(C)cc3)C2=O)cc1	-10%	?	4%	4.7%	?	-1%	0%	-4%
Cc1cc(CN(C)C(=O)c2cc(COc3ccc(C)c(C)c3)on2)n[nH]1	7%	/	23%	/	/	/	5%	5%
Cc1onc(C(=O)NCc2ccc(F)cc2)c1[N+](=O)[O-]	/	-2%[46.1 µM]	0%	/	-7%[46.1 µM]	/	41%	9%
C=CCn1c(COc2ccc(F)cc2)nnc1SCC(=O)NC1CCS(=O)(=O)C1 (centres undefined)	/	11%	/	/	-14%	/	9%	-8%
N#C/C(=C\c1ccc2c(c1)OCO2)C(N)=S	9%	/	1%	/	/	/	4%	1%
COc1ccc(-c2nnn(CC(=O)N3CCN(c4ccccc4OC)CC3)n2)cc1	-6%	-1%	-14%	-3.1%	-13%	?	8%	?
(cont.)
SMILES	NS1 function inh	MARV entry inh	SARS PLpro yeast	Cruzain inh Det	Lassa entry inh	Cruzain inh noDet	RE007 growth inh	StopGo reporter
O=C(NCc1ccccc1)c1ccc(N2C(=O)C3CCCCC3C2=O)cc1 (centres undefined)	3%	40%	-2%	0.1%	-5%	-8%	4%	2%
O=C1C2C3C=CC(C3)C2C(=O)N1/N=C/c1cn(Cc2ccccc2)c2ccccc12 (centres undefined)	-8%	?	-6%	-1.5%	?	-3%	13%	11%
COc1ccc(C2c3c(oc4ccccc4c3=O)C(=O)N2c2nc(C)c(C)s2)cc1 (centres undefined)	/	1%[46.1 µM]	/	-0.1%	0%[46.1 µM]	6%	/	2%
COc1cc(OC)c(C(=O)OCC(=O)N(Cc2ccccc2)C(C)(C)C)cc1OC	-3%	?	2%	/	?	/	25%	?
CN1C(=O)[C@H]2[C@@H](/C=C/c3ccccc3)N3C(=O)CN(Cc4ccc(-c5ccccc5)cc4)C(=O)[C@@]3(Cc3ccccc3)[C@H]2C1=O	?	/	-4%	/	/	/	5%	-23%
Cc1ccc(NC(=O)CSc2nnc(-c3ccncc3)o2)cc1	8%	-8%	4%	7.9%	25%	-5%	?	18%
CCN(c1ccccc1)S(=O)(=O)c1ccc2c(c1)N(C(C)=O)CCS2	5%	/	0%	/	/	/	-8%	-17%
COc1cccc2c(=O)c(SC(F)(F)C(F)C(F)(F)F)c(C)[nH]c12 (centres undefined)	0%	-9%	-8%	-8.2%	4%	3%	11%	67%[activator]
CCCCCCNc1c([N+](=O)[O-])cc(C)cc1[N+](=O)[O-]	/	-2%	/	/	6%	/	10%	-25%
O=C(NCc1cccnc1)Nc1ccc(Cl)c(Cl)c1	5%	/	-1%	/	/	/	-9%	72%[activator]
Cc1ccc(-c2cc(N)n(-c3ccc(F)cc3)n2)cc1	12%	?	-1%	/	13%	/	-23%	56%[activator]
CCN1CCN(C(=O)Cn2ncc3c4ccccc4n(Cc4ccccc4)c3c2=O)CC1	/	1%[46.1 µM]	/	-4.6%	-10%[46.1 µM]	0%	/	-3%
Cc1cc(C)n(-c2ccc(F)cc2)c(=O)c1C#N	-1%	29%[46.1 µM]	2%	/	-5%	/	-5%	-5%
CCOc1ccc(CCNC(=O)CN2C(=O)NC3(CCCCC3C)C2=O)cc1OCC (centres undefined)	/	13%[46.1 µM]	/	/	-12%	/	4%	-14%
CC(=O)c1cccc(NC(=O)Cn2cnc3c2c(=O)n(C)c(=O)n3C)c1	/	12%[46.1 µM]	/	-2.2%	-2%[46.1 µM]	-4%	/	-18%
COc1ccc(C(=O)NC2CCN(S(=O)(=O)Cc3ccccc3)CC2)c(OC)c1	3%	-6%	2%	2.6%	-15%	5%	15%	-24%
CCCCn1c(N)c(N(CCOC)C(=O)COC(=O)COc2cc(C)ccc2Cl)c(=O)[nH]c1=O	/	11%	1%	/	9%[46.1 µM]	/	2%	7%
COCCN(C(=O)COC(=O)CCCOc1ccccc1)c1c(N)n(Cc2ccccc2)c(=O)[nH]c1=O	/	?	2%	/	1%[46.1 µM]	/	-8%	-10%
CCOc1ccccc1CNC(=O)c1ccc2c(c1)nc1n2CCCCC1	/	/	/	-2.2%	5µM*	-8%	/	19%
O=C(CSc1nc2ccccc2nc1SCC(=O)N1CCCCC1)N1CCCCC1	-5%	-19%	2%	-10%	?	7%	7%	/
CCCCNC(=O)c1cn(CC(C)C)c(=O)c2c1c1ccccc1n2C	?	?	1%	/	?	/	-6%	-3%
Cc1ccc(NC(=S)N2CCc3[nH]c4ccccc4c3C2)cc1	-4%	-8%	0%	/	?	/	1%	6%
Cc1ccc(S(=O)(=O)Nc2ccc(F)c(S(=O)(=O)N3CCOCC3)c2)cc1	/	-16%	1%	/	6%	/	14%	7%
CNc1nc(NC)nc(NNC(=O)c2ccccc2)n1	/	7%	/	/	7%	/	-6%	-23%
COc1ccc(C(C)C)cc1S(=O)(=O)NCC1CCCO1 (centres undefined)	13%	/	5%	/	/	/	11%	102%[activator]
Later entries
SMILES	NS1 function inh	MARV entry inh	SARS PLpro yeast	Cruzain inh Det	Lassa entry inh	Cruzain inh noDet	RE007 growth inh	StopGo reporter
O=C1c2ccccc2C(=O)N1CCCc1cn(C[C@H]2CC[C@@H]([C@@H]3CC[C@H](Cn4cc(CCCN5C(=O)c6ccccc6C5=O)nn4)O3)O2)nn1	-3%	/	-4%	/	/	/	0%	-18%
Cc1ccc2occ(/C=N/NC(=O)c3ccccc3Br)c(=O)c2c1	-2%	/	-1%	/	/	/	3%	?
COC(=O)[C@@H]1C[C@H]2CC[C@H](O)C[C@H]2N1Cc1ccccc1OC(=O)c1cccs1	?	/	1%	-6.3%	/	1%	-18%	8%
COc1nc(-c2ccccc2)ccc1-c1noc(-c2ccco2)n1	-9%	4%[46.1 µM]	-2%	-6.8%	-1%	-14%	-9%	90%[activator]
Cc1ccc(NC(=O)CSCc2ccc(F)cc2)cc1	-37%	?	0%	-2.1%	-5%	-4%	-10%	66%[activator]
O=C1N/C(=C\c2ccc(N3CCOCC3)c(F)c2)C(=O)N1Cc1ccccc1	1%	?	3%	8.4%	?	-2%	6%	-16%
CC(=O)c1ccc2c(c1)c(C#N)c1ccccc1[n+]2[O-]	-3%	14%	0%	/	37%	/	-16%	12%
CCOC(=O)c1c(NC(=O)CN2CCCCC2)sc(CN(C)C)c1-c1ccccc1	6%	?	0%	/	?	/	2%	-19%
CN(C)N1C(N)=C(C#N)C(c2ccccc2F)C2=C1CC(C)(C)CC2=O (centres undefined)	5%	/	1%	/	/	/	-5%	-7%
Cc1ccc(NC(=O)C2CC(Cl)=CCC2C(=O)O)c([N+](=O)[O-])c1 (centres undefined)	2%	?	-2%	/	1%	/	12%	0%
Cc1cccc(C)c1NC(=O)C(c1ccccc1)N1CCC1=O (centres undefined)	11%	29%	-7%	-0.2%	3%	-3%	1%	4%
Clc1ccccc1CSc1nc(NCCc2ccccc2)c2ccccc2n1	/	/	/	0.1%	-3%[46.1 µM]	12%	/	?
COc1ccc(COC(=O)NC2CCN(S(=O)(=O)c3ccc(OC)cc3)CC2)cc1	3%	0%	-1%	-4.5%	-24%	2%	11%	?
COc1ccccc1C(=O)Nc1ccc(-c2nnn(CC(=O)N3CCOCC3)n2)cc1	-2%	?	0%	/	28%	/	8%	2%
CNS(=O)(=O)c1cc(C(=O)O)ccc1OC	1%	3%[14.2 µM]	-1%	/	2%	/	-19%	-8%
CC(=O)Nc1ccc(/C=C2\CCc3ccccc3C2=O)cc1	-3%	?	-5%	/	?	/	3%	-77%
CC1CCN(C(=O)c2ccc(CS(=O)(=O)Cc3ccccc3)cc2)CC1	3%	-25%	-4%	/	-22%	/	2%	-8%
